Bioassay records from PubChem BioAssay.
UUG fidelity – modulators of start codon recognition fidelity in yeast | S. cerevisiae UUG-firefly luciferase reporter, luminescence/redox ratio | activity score, % at 18.7 µM | 350,000 compounds, 0.13% hits | AID 602363;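 active means replicate mean at a twofold rise or more, about +100% in these data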;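 further: firefly luciferase made from a UUG start codon reports start codon fidelity; reporter light over untreated wells divided by growth signal over untreated wells; some hits fall short of that in this replicate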
HIV Env fusion – HIV envelope-mediated fusion inhibition; HeLa-JRFL Env/CEM21 cell fusion, luciferase; inhibition, % at 12.3 µM; 360,000 compounds, 1.1% hits;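 active means mean replicate inhibition score of at least 50 and every replicate individually at or above 50; inconclusive means only one of the two criteria met; inactive means mean below 50 and not all replicates reaching 50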;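 further: 0% = plate neutral controls and 100% = maraviroc near 300 nM; one replicate is shown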
CSC inhib – cancer stem cell inhibition. cancer stem cell-like cells viability, luminescence. inhibition, % at 7.5 µM. 300,000 compounds, 1.1% hits;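 active means mean at 75% or more and at least half the replicates too; inconclusive means mean and replicates disagree; tested in HMLE shEcad cells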;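 further: 0% = median of negative and 100% = median of positive control wells; the first replicate is given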
eIF4H FP inh – inhibitors of RNA binding by human eIF4H | inhibition, % at 35 µM | AID 2012 | Q15056 | 290,000 compounds, 0.94% hits | eIF4H fluorescence polarization binding assay;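 active means 50% or more with normal probe brightness, or confirmed in later tests; inconclusive means above 50% with abnormal brightness, or retests that disagree; inactive means below 50% or failed in later tests; about a fifth of its hits are not listed in these tables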;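 further: calls also rest on retests at 20 µM and on dose response follow-up; 0% = protein and probe with vehicle and 100% = probe without protein; strong numbers were not always called active; many hits fall short of the cut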
Rce1 inh – inhibitors of yeast Ras-converting enzyme. yeast membranes, quenched prenylated peptide cleavage fluorescence. calls only. Q03530. 290,000 compounds, 0.27% hits. AID 2563;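 active means fall in fluorescence gain of 50% or more versus controls, with final raw signal at or below 3038400; inconclusive means same 50% fall but final raw signal above 3038400; inactive means fall in fluorescence gain under 50%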;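 further: plate controls were neutral control wells for no effect and wells lacking membranes for full effect; tested at 10 µM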
Target sequence (Q03530 whole entry, looked up): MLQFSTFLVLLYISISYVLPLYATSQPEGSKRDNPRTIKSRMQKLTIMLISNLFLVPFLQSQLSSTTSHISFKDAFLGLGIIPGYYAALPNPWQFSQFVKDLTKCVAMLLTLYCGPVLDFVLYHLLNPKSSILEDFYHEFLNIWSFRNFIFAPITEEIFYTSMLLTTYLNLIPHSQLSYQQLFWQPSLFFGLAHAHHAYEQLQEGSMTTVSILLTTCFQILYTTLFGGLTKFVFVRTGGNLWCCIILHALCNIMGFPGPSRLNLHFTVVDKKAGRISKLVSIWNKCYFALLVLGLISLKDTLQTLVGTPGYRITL
PABP FP inh – blocks human PABP binding to poly(A) RNA; inhibition, % at 35 µM; 290,000 compounds, 1% hits; fluorescence polarization;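 active means 50% or more with normal probe brightness, or confirmed in later tests; inconclusive means above 50% with abnormal brightness, or retests that disagree; inactive means below 50% or failed in later tests; about a fifth of its hits are not listed in these tables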;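 further: calls also rest on retests at 20 µM and on dose response follow-up; controls were probe without protein and protein plus probe with vehicle; some compounds called inactive have numbers as strong as hits; many hits fall short of the cut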
Target sequence (P11940 whole entry, looked up): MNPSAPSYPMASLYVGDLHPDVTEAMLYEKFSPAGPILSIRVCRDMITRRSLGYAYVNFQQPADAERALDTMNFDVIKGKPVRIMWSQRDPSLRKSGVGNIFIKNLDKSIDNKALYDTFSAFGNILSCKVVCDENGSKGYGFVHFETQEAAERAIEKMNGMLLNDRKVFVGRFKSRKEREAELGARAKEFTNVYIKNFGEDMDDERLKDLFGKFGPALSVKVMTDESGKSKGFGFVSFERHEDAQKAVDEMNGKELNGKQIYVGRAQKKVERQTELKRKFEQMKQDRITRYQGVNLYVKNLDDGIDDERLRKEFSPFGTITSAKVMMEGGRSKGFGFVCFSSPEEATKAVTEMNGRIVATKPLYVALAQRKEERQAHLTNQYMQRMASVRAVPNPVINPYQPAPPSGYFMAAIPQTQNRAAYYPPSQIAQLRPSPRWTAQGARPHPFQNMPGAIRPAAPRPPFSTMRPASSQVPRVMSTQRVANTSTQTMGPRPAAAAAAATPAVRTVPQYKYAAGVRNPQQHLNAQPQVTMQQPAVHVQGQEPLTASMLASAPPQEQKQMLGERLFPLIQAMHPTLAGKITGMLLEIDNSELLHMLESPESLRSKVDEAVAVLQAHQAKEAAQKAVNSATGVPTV
eIF4H FP inh retest – also measured in eIF4H FP inh; calls as there; inhibition, %; compound at 20 µM; confirmation average;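 mean of two retest wells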
PABP FP inh retest – second read-out of PABP FP inh, no call of its own (marks repeat the call); inhibition, %; compound at 20 µM; confirmation repeats;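 mean of two retest wells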
Active calls of the source: *; i = inactive; ? = inconclusive; nt = not tested or not shown; [ ] = another dose, or the depositor's remark. An excerpt (hit frequency here may not be typical).

SMILES | UUG fidelity | HIV Env fusion | CSC inhib | eIF4H FP inh | Rce1 inh | PABP FP inh | others
NC(Cc1cc(O)c(O)cc1O)C(=O)O (stereo not given) | nt | nt | -1.9 | nt | nt | nt
CCC1C=CC=CC[C@H](C)[C@@H](O)[C@](C)(O)C(=O)[C@@H](C)[C@H](O)[C@@H](C)C(=O)[C@H](C)[C@@H](O)[C@H](C)C=CC(=O)OC2[C@@H](C)C(CC1)OC1(CC[C@@H](C)C(C[C@H](C)O)O1)[C@@H]2C (stereo not given in full) | nt | nt | 99.0* | nt | nt | nt
O=P(O)(O)C#Cc1ccccc1 | nt | nt | nt | -2.2 | nt | 26.0
CCCCCCn1c(=O)c(C(=O)Nc2ccncc2)c(O)c2ccccc21 | nt | nt | nt | 10.1 | nt | -15.4
CCN1C(=O)/C(=C\c2ccc([N+](=O)[O-])s2)C(=O)NC1=S | nt | nt | nt | 52.0* | nt | 3.4* | eIF4H FP inh retest=89.3*;PABP FP inh retest=62.8*
CC(C)[C@@]1(NC(=O)[C@@H]2C=C3c4cccc5[nH]cc(c45)C[C@H]3N(C)C2)O[C@@]2(O)[C@@H]3CCCN3C(=O)[C@H](Cc3ccccc3)N2C1=O | nt | nt | nt | ? | nt | 4.9
COC(=O)c1cc(COc2cc(C)cc3oc(=O)c4c(c23)CCC4)c(C)o1 | nt | nt | nt | -1.1 | nt | 1.9
COc1ccc(CN2C(=O)NC(=O)/C(=C/c3ccc([N+](=O)[O-])o3)C2=O)cc1 | nt | nt | nt | 92.6 | nt | -3.1 | eIF4H FP inh retest=0.2;PABP FP inh retest=6.1
CCCCCn1c(=O)c(C(=O)Nc2ccncc2)c(O)c2ccccc21 | nt | nt | nt | 9.3 | nt | -5.5
NC1=NC(=O)C(c2ccccc2)O1 (stereo not given) | nt | nt | nt | 6.6 | nt | 9.6
O=C(Nc1cccc(Cl)c1)c1c(O)c2c(n(Cc3ccccc3)c1=O)CCCC2 | nt | nt | nt | -6.2 | nt | 14.7
OC[C@@H](O)CCl | nt | nt | 1.7 | nt | i | nt
CC(C)(C#CCCCCC#CC(C)(C)[N+](C)(C)C)[N+](C)(C)C | nt | nt | -22.8 | nt | i | nt
CC(C)(O)[C@@H]1[C@H]2OC(=O)[C@@H]1[C@]1(O)C[C@H]3O[C@]34C(=O)O[C@H]2[C@]14C (tested in a mixture with another compound) | nt | nt | -5.9 | nt | i | nt
CC(=O)O[C@@H]1/C=C/[C@](C)(O)C[C@@H](C)C/C=C/[C@H]2[C@H](O)C(C)=C(C)[C@H]3[C@H](Cc4ccccc4)NC(=O)[C@@]123 | nt | nt | 3.7 | nt | i | nt
C[C@]12CC[C@H](O)CC1=CC[C@@H]1[C@@H]2CC[C@@]2(C)[C@H]1CC[C@]2(C)O | nt | nt | -16.2 | nt | i | nt
N#Cc1cccc(-c2ccc([C@H]3[C@H]4CN(C(=O)Cc5cccnc5)CCCCN4[C@H]3CO)cc2)c1 | -15.5 | nt | nt | nt | nt | nt
N#Cc1cccc(-c2ccc([C@@H]3[C@H](CO)N4CCCCN(C(=O)Cc5cccnc5)C[C@@H]34)cc2)c1 | -24.5 | nt | nt | nt | nt | nt
CN1[C@H](CO)[C@H]2c3ccccc3NC[C@H]21 | 8.3 | nt | nt | nt | nt | nt
O=C(Cc1ccccn1)N1CCCCN2[C@H](C1)[C@@H](c1ccc(Br)cc1)[C@@H]2CO | -8.4 | nt | nt | nt | nt | nt
O=C(Cc1ccccn1)N1CCCCN2[C@@H](CO)[C@@H](c3ccc(-c4ccccc4)cc3)[C@@H]2C1 | -4.4 | nt | nt | nt | nt | nt
O=C(Cc1ccccc1)N1CCCCN2[C@H](CO)[C@@H](c3ccc(-c4ccccc4)cc3)[C@@H]2C1 | 15.5 | nt | nt | nt | nt | nt
O=C(Cc1ccccc1)N1CCCCN2[C@H](CO)[C@H](c3ccc(-c4ccccc4)cc3)[C@H]2C1 | 5.4 | nt | nt | nt | nt | nt
O=C(Cc1ccccn1)N1CCCCN2[C@H](CO)[C@H](c3ccc(Br)cc3)[C@@H]2C1 | -2.8 | nt | nt | nt | nt | nt
N#Cc1cccc(-c2ccc([C@H]3[C@@H](CO)N4CCCCN(C(=O)Cc5cccnc5)C[C@H]34)cc2)c1 | -17.1 | nt | nt | nt | nt | nt
O=C(Cc1ccccn1)N1CCCCN2[C@H](CO)[C@@H](c3ccc(Br)cc3)[C@H]2C1 | -5.8 | nt | nt | nt | nt | nt
O=C(Cc1ccncc1)N1CCCCN2[C@H](CO)[C@@H](c3ccc(-c4ccncc4)cc3)[C@H]2C1 | 6.1 | nt | nt | nt | nt | nt
O=C(Cc1cccnc1)N1CCCCN2[C@@H](CO)[C@H](c3ccc(C#CC4CC4)cc3)[C@@H]2C1 | 1.9 | nt | nt | nt | nt | nt
CN(C)CC#Cc1ccc([C@@H]2[C@@H](CO)N3CCCCN(C(=O)Cc4ccccn4)C[C@@H]23)cc1 | -6.5 | nt | nt | nt | nt | nt
CN(C)C(=O)[C@@H]1[C@@H](CO)[C@@H]2Cn3c(cccc3=O)[C@H]1N2CC1CC1 | -17.4 | nt | nt | nt | nt | nt
COc1ccc(C#Cc2ccc([C@@H]3[C@H](CO)N4CCCCN(C(=O)Cc5ccncc5)C[C@@H]34)cc2)cc1 | -4.8 | nt | nt | nt | nt | nt
O=C(Cc1ccccc1)N1CCCCN2[C@H](CO)[C@H](c3ccc(C#CC4(O)CCCC4)cc3)[C@H]2C1 | 13.4 | nt | nt | nt | nt | nt
O=C(Cc1ccccc1)N1CCCCN2[C@@H](CO)[C@H](c3ccc(C#CC4(O)CCCC4)cc3)[C@@H]2C1 | 5.7 | nt | nt | nt | nt | nt
COc1ccc(C#Cc2ccc([C@H]3[C@H]4CN(C(=O)Cc5ccccc5)CCCCN4[C@H]3CO)cc2)cc1 | 18.2 | nt | nt | nt | nt | nt
C/C=C/c1ccc([C@@H]2[C@H]3CN(C(=O)Cc4ccncc4)CCCCN3[C@H]2CO)cc1 | -12.4 | nt | nt | nt | nt | nt
COc1cccc(-c2ccc([C@@H]3[C@H](CO)N4CCCCN(C(=O)Cc5ccncc5)C[C@@H]34)cc2)c1 | -4.4 | nt | nt | nt | nt | nt
O=C(Cc1ccccc1)N1CCCCN2[C@H](C1)[C@H](c1ccc(C#CC3(O)CCCC3)cc1)[C@@H]2CO | 20.2 | nt | nt | nt | nt | nt
CC(C)CC#Cc1ccc([C@@H]2[C@H]3CN(C(=O)Cc4ccccn4)CCCCN3[C@H]2CO)cc1 | 8.6 | nt | nt | nt | nt | nt
N#Cc1cccc(-c2ccc([C@@H]3[C@@H](CO)N4CCCCN(C(=O)Cc5ccncc5)C[C@@H]34)cc2)c1 | -14.3 | nt | nt | nt | nt | nt
O=C(Cc1cccnc1)N1CCCCN2[C@H](C1)[C@@H](c1ccc(C#CC3(O)CCCC3)cc1)[C@@H]2CO | 23.0 | nt | nt | nt | nt | nt
N#Cc1cccc(-c2ccc([C@H]3[C@H](CO)N4CCCCN(C(=O)Cc5ccncc5)C[C@@H]34)cc2)c1 | -9.7 | nt | nt | nt | nt | nt
COc1ccc(-c2ccc([C@@H]3[C@@H](CO)N4CCCCN(C(=O)Cc5ccncc5)C[C@H]34)cc2)cc1 | 2.5 | nt | nt | nt | nt | nt
C/C=C/c1ccc([C@@H]2[C@H](CO)N3CCCCN(C(=O)Cc4ccncc4)C[C@@H]23)cc1 | -3.1 | nt | nt | nt | nt | nt
N#Cc1cccc(-c2ccc([C@@H]3[C@@H](CO)N4CCCCN(C(=O)Cc5cccnc5)C[C@H]34)cc2)c1 | -15.2 | nt | nt | nt | nt | nt
N#Cc1cccc(-c2ccc([C@@H]3[C@H]4CN(C(=O)Cc5cccnc5)CCCCN4[C@H]3CO)cc2)c1 | -11.4 | nt | nt | nt | nt | nt
O=C(Cc1cccnc1)N1CCCCN2[C@H](CO)[C@H](c3ccc(C#CC4(O)CCCC4)cc3)[C@@H]2C1 | 3.3 | nt | nt | nt | nt | nt
COC(=O)[C@@H]1[C@@H](CO)[C@@H]2Cn3c(ccc(-c4ccccc4)c3=O)[C@H]1N2CC1CC1 | 9.5 | nt | nt | nt | nt | nt
N#Cc1cccc(-c2ccc([C@H]3[C@H]4CN(C(=O)Cc5ccccc5)CCCCN4[C@H]3CO)cc2)c1 | -0.1 | nt | nt | nt | nt | nt
O=C(Cc1ccncc1)N1CCCCN2[C@H](CO)[C@H](c3ccc(C#Cc4ccccc4F)cc3)[C@H]2C1 | -6.3 | nt | nt | nt | nt | nt
O=C(Cc1cccnc1)N1CCCCN2[C@H](CO)[C@@H](c3ccc(C#CC4CCCC4)cc3)[C@@H]2C1 | -1.7 | nt | nt | nt | nt | nt
O=C(Cc1ccccn1)N1CCCCN2[C@H](CO)[C@@H](c3ccc(-c4ccccc4)cc3)[C@@H]2C1 | -7.4 | nt | nt | nt | nt | nt
COc1ccc(C#Cc2ccc([C@@H]3[C@@H](CO)N4CCCCN(C(=O)Cc5cccnc5)C[C@H]34)cc2)cc1 | -2.1 | nt | nt | nt | nt | nt
O=C(Cc1ccccc1)N1CCCCN2[C@H](CO)[C@@H](c3ccc(C#Cc4ccccc4)cc3)[C@H]2C1 | 26.6 | nt | nt | nt | nt | nt
O=C(Cc1ccccn1)N1CCCCN2[C@H](CO)[C@H](c3ccc(-c4ccccc4F)cc3)[C@H]2C1 | -16.8 | nt | nt | nt | nt | nt
COC(=O)[C@@H]1[C@@H](CO)[C@@H]2Cn3c(ccc(C4=CCCCC4)c3=O)[C@H]1N2CC1CCCC1 | 10.7 | nt | nt | nt | nt | nt
COc1ccc(C#Cc2ccc([C@H]3[C@H]4CN(C(=O)Cc5ccncc5)CCCCN4[C@H]3CO)cc2)cc1 | 11.3 | nt | nt | nt | nt | nt
COC(=O)[C@H]1[C@H](CO)[C@H]2Cn3c(ccc(/C=C/c4ccccc4)c3=O)[C@@H]1N2C(=O)C1CCC1 | 6.7 | nt | nt | nt | nt | nt
O=C(Cc1cccnc1)N1CCCCN2[C@@H](CO)[C@@H](c3ccc(C#CC4(O)CCCC4)cc3)[C@@H]2C1 | 33.2 | nt | nt | nt | nt | nt
O=C(Cc1cccnc1)N1CCCCN2[C@H](CO)[C@H](c3ccc(C#CC4(O)CCCC4)cc3)[C@H]2C1 | 17.0 | nt | nt | nt | nt | nt
N#Cc1cccc(-c2ccc([C@@H]3[C@H](CO)N4CCCCN(C(=O)Cc5ccccc5)C[C@@H]34)cc2)c1 | -9.1 | nt | nt | nt | nt | nt
New compounds follow
SMILES | UUG fidelity | HIV Env fusion | CSC inhib | eIF4H FP inh | Rce1 inh | PABP FP inh | others
CCC(C)(C)c1ccc(O)cc1 | -15.6 | nt | -9.3 | nt | nt | nt
C=CC(=O)NCNC(=O)C=C | -11.8 | nt | -9.1 | nt | nt | nt
COc1ccc2nc(-c3ccc(CN4CCC(n5nnc6ccccc65)CC4)cc3)c(-c3ccccc3)nc2c1 | nt | 33.5 | nt | nt | nt | nt
Cc1cc(N2CCNC[C@@H]2C)ccc1N1CC[C@H](O)C1 | nt | 0.2 | nt | nt | nt | nt
CN1C[C@H](O)[C@H]2C[C@@H]1c1ccccc1O2 | nt | 19.2 | nt | nt | nt | nt
CN1CCN(C(=O)CN=[N+]=[N-])CC1 | nt | -16.3[16.7 µM] | nt | nt | nt | nt
CC(C)S(=O)(=O)N1Cc2ccc(Br)cc2-n2nncc2C1 | nt | 4.9 | nt | nt | nt | nt
COC(=O)C1=C(c2ccc(OC(F)(F)F)cc2)C[C@@H]2CC[C@H]1N2C(=O)N1CCc2cc(OC)c(OC)cc2C1 | nt | 16.9 | nt | nt | nt | nt
COC(=O)[C@H]1[C@H](CO)[C@H]2Cn3c(ccc(-c4ccccc4F)c3=O)[C@@H]1N2CC1CCCC1 | nt | 8.3[16.7 µM] | nt | nt | nt | nt
Cc1ccc(N2Cc3ccccc3-n3nncc3C2)cc1 | nt | ? | nt | nt | nt | nt
COc1ccc(-c2ccc3n(c2=O)C[C@@H]2[C@@H](CO)[C@H](C(=O)O)[C@H]3N2C(=O)c2ccccc2F)cc1 | nt | 7.3[16.7 µM] | nt | nt | nt | nt
